Screening data from PubChem.
NPYLR7 agonist = mosquito NPYLR7 agonism | HEK293T NPYLR7/Galpha15, GCaMP6s calcium fluorescence | activation, % at 10 µM | 0.15% of 270,000 active | AID 1259423; in the data active = activation above about 40%;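 note: 0% = vehicle and 100% = reference agonist at the receptor; some compounds past the cut are filed as inactive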
NPYLR7 agonist max-min = recorded beside NPYLR7 agonist, whose call it bears; activation, %; measured here: Max-Min RFU normalised activation; some inactives read as strong as hits;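 span of the calcium signal over five minutes; 0% = vehicle and 100% = native peptide agonist; compound fluorescence can raise it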
The depositor's hits bear a star; i = inactive; & = joins results of further samples. This is a subset. The share of hits here may be higher or lower than overall.

SMILES	NPYLR7 agonist	NPYLR7 agonist max-min
CC1CCC(C(=O)N(c2cc(C#CC(C)(C)C)sc2C(=O)O)C2CCC(O)CC2)CC1 (stereo not drawn)	-8	-15
CCn1cnc(NC(=O)N2CCCC(c3ccccc3)CC2)n1 (stereo not drawn)	7	-1
CCc1nc(CN(C)C(=O)c2cc(Cn3ccc4ccccc43)[nH]n2)no1	2	2
CCOC(=O)C1CCCN(C(=O)c2cnn(-c3cccc(F)c3)c2C(F)(F)F)C1 (stereo not drawn)	21	21
CCc1nnc(NC(=O)Cc2c(C)nc(C)[nH]c2=O)s1	0	-4
Nc1cc(-c2ccc(Cl)cc2)nn1-c1ccc(C(=O)NCc2cccnc2)cc1	-6	-8
CCOCCn1cc(C2CCN(C(=O)c3ccc(Cl)nc3)CC2)c2ccccc21	0	3
COC(=O)c1cc(CC#N)c(C)o1	-6	-9
CC[C@H]1CN(C(=O)NC(C)C)CC[C@H]1CC(=O)NCCN1CCCCC1	-7	-11
C=CCN1C(=O)C(O)(CC(=O)c2ccco2)c2cc(Br)ccc21 (stereo not drawn)	2	0
O=C(C1CCCC1)N(Cc1c(-c2ccccc2F)noc1N1CCOCC1)CC1CCCO1 (stereo not drawn)	7	5
CCOC(=O)[C@@H]1C[C@H]2CN(CCOC)C(=O)c3cccc(c32)N1C(=O)C1CCCC1	-1	7

Exported bar-delimited: two of the compounds above
structure | NPYLR7 agonist | NPYLR7 agonist max-min
CCOCCn1cc(C2CCN(C(=O)c3ccc(Cl)nc3)CC2)c2ccccc21 | 0 | 3
COC(=O)c1cc(CC#N)c(C)o1 | -6 | -9

Other records.
SMILES	NPYLR7 agonist	NPYLR7 agonist max-min
CC(=O)NC(=O)c1cc2ccc(OC(C)=O)cc2oc1=Nc1ccc(C)cc1	-5	-9
Cc1noc(-c2ccccc2C(=O)NCC(O)Cc2ccccc2)n1 (stereo not drawn)	0	-1
COCCN(CC(=O)N1CCc2sccc2C1COc1ccccc1OC)C(=O)c1cccs1 (stereo not drawn)	-1	1
CCN(CC)c1ccc(CN(C(=O)C2CCC2)C2CC2)c(OS(C)(=O)=O)c1	-1	6
CCOC(=O)C1(Cc2ccccc2)CCN(Cc2ccc(CC)o2)CC1	5	1
Cc1ccnc(Nc2ccc(NCCNC(=O)CCc3ccccc3)nn2)c1	12	3
CN1CCN(c2ccc(Cl)cc2NC(=O)COc2ccc(C#N)cc2)CC1	-3	-5
C=C(Br)Cn1c(C2CC(=O)N(c3ccccc3OC)C2)nc2ccccc21 (stereo not drawn)	-12	-10
CCOc1cccc2cc(-c3nnc(-c4cccc(F)c4)o3)c(=O)oc12	-7	-14
CN(C)c1ccc(/C=C2\N=C(c3cccc4ccccc34)OC2=O)cc1	10	4
CCCNC(=O)C1(C)CCCN(CCOc2ccccc2)C1 (stereo not drawn)	0	-3
CCC1(CO)CCCN(c2ncc(C(F)(F)F)cc2Cl)C1 (stereo not drawn)	7	4
O=c1n(Cc2nnc(-c3ccccc3)o2)nc2ccccn12	2	-5
CCn1ccnc1CN(C)c1cc(N2CCOCC2)nc(N)n1	7	5
Cc1ccc(C)c(S(=O)(=O)NCCn2nc(-c3ccc(F)cc3)ccc2=O)c1	-5	-5
COc1ccccc1CCNC(=O)C(C1CCCC1)N1CCN(C(=O)c2cccc([N+](=O)[O-])c2)CC1 (stereo not drawn)	-8	-3
O=C(Nc1cccc(-n2cccn2)c1)C1CCCN(Cc2ccc3c(c2)OCCO3)C1 (stereo not drawn)	5	0
COc1cc(-c2cc(-c3ccccc3CO)cnc2N)cc(OC)c1OC	-3	-10
CCOc1ccccc1NC(=O)c1cc2c(CO)cnc(C)c2oc1=Nc1ccc(OC)cc1	3	15
CCOC(=O)c1cc(-c2ccc(N3CCN(C(=O)c4oc5ccccc5c4C)CC3)cc2)n(-c2ccccc2Cl)n1	3	-3
O=C(CCOc1ccccc1)N1CCC(n2c(-c3ccccc3)nc3ccc(F)cc32)CC1	11	-1
CCSc1ncc(CN2CC[C@@H](N(C)CCc3ccccn3)[C@H](O)C2)cn1	15	5
O=C(NCc1ccco1)N1CCN(c2ccccn2)CC1	-8	-10
CNS(=O)(=O)CC1CCCN1c1ccc(F)cc1C#N (stereo not drawn)	-23	-25
COc1ccccc1C1C(N2CSCC2=O)C(=O)N1CCc1ccccc1 (stereo not drawn)	21	18
CCCCCC1=C(C(C)=O)C(=N)C(C#N)C1(C#N)C#N (stereo not drawn)	16	8
CC(c1ccc2ccccc2c1)N(C)C1CCN(C(=O)C2CC2)CC1 (stereo not drawn)	-1	0
O=C(Cc1cc(-c2ccc(Cl)cc2)on1)NCCC1=CCCCC1	7	7
CC(C)(C)SCC(=O)Nc1ccc(Br)cc1C(N)=O	-3	i
COC(=O)N1CCCc2cc(NS(=O)(=O)NCc3ccccc3)ccc21	6	5
CCOC(=O)c1ccc2c(c1)nc(SCc1ccccc1C#N)n2CCOC	-6	-16
Cc1ccc(-c2cc(CNC(=O)CCNC(=O)OC(C)(C)C)on2)cc1	13	10
CC(NC(=O)CN1CN(c2ccccc2)C2(CCN(C(=O)/C=C/c3ccc([N+](=O)[O-])cc3)CC2)C1=O)c1ccccc1 (stereo not drawn)	21	21
Cc1cccnc1C(NC(=O)C1CCN(CCCOc2ccccc2)CC1)c1ccccc1 (stereo not drawn)	8	-5
COC(=O)c1sc(NC(=O)CCCl)c(C(=O)OC)c1C	-8	-14
COC(=O)CCc1c(C)nn(-c2ccc(C(=O)NCc3cccnc3)cc2)c1C	2	1
O=C(Cn1ncc(Cl)c(Cl)c1=O)Nc1ccc2c(c1)OCO2	8	7
CCCC(=O)OCC(O)CN(CCOC)Cc1ccc(OC)cc1 (stereo not drawn)	-1	11
COc1ccc(-c2nnc3c4cnn(C)c4ncn23)cc1OC	7	1
COc1ccccc1N1CCN(C(=O)c2cccc(CSc3nc(Cl)cc(N4CCN(c5ccccc5C)CC4)n3)c2)CC1	19	21
CC(C)c1cc(=O)[nH]c(-n2nc(-c3cccs3)cc2NC(=O)COc2ccc(Cl)cc2)n1	0	-4
C1=C(Cc2nc(C3CC3)n[nH]2)CCCC1	-1	3
c1ccc(-c2nnc3n2CCN(Cc2cc4n(n2)CCCNC4)CC3)cc1	14	9
CC(C)C(=O)NC(NC(=S)Nc1cccc2cccnc12)C(Cl)(Cl)Cl (stereo not drawn)	-1	-2
COC(=O)c1cc2c(=O)n(-c3ccccc3)ccc2nc1C	0	0
Cc1c(C(=O)N2CCc3c(nc(N(C)C)[nH]c3=O)C2)sc2ccccc12	6	2
Cc1cccc(C(=O)Nc2cccc(-c3nc4cc(C)ccc4o3)c2C)c1	-10	-12
OCCN1CNC(=S)NC1	11	3
Cc1nc2n(n1)C(=O)C(C(c1ccccc1Cl)N1CCC(C(N)=O)CC1)S2 (stereo not drawn)	-4	-8
CCN(CC(=O)NC1CCS(=O)(=O)C1)C(=O)c1ccc(Br)s1 (stereo not drawn)	-1	21
O=C(NCCn1ncccc1=O)Nc1ccccc1C(F)(F)F	-10	-20
CC1CCC2(CC1)NC(=O)N(CN1CCN(S(=O)(=O)c3ccc(F)c(Cl)c3)CC1)C2=O (stereo not drawn)	5	8
Cc1cccc(CSc2nnc(CNS(=O)(=O)c3cc(Cl)ccc3Cl)n2-c2cc(Cl)ccc2C)c1	19	22
Nc1ccc2c3c(cccc13)C(=O)N(c1ccccc1)C2=O	76*	74*
Cc1nc2nc(-c3ccccc3O)cc(C(=O)O)c2[nH]1	0	-1
CC(=O)OC12CC3C(=O)NC(CC(C)C)C(=O)N3C1N(C(C)=O)c1ccccc12 (stereo not drawn)	-5	-15
Cn1cnc2cc(C(=O)Nc3cnc4n3CCCC4)cnc21	0	-1
CCOc1ccc(NC(=O)NC(C)c2nnc(SCc3ccccc3C)n2-c2cc(Cl)ccc2C)cc1 (stereo not drawn)	16	17
Cn1nc(C2CCCN(c3ncccc3C(N)=O)C2)n(-c2ccccc2)c1=O (stereo not drawn)	26	10
O=C1/C(=C/c2cccnc2)Oc2c1ccc1c2CN(CCc2cccs2)CO1	35	32
Next part.
SMILES	NPYLR7 agonist	NPYLR7 agonist max-min
CCOc1ccc(NC(=O)Cn2c(-c3nnc(CC(C)C)o3)cc3ccccc32)cc1	-4	-4
Clc1ccc2nc(NN=Cc3cccnc3)nc(-c3ccccc3)c2c1	0	-2
COc1ccccc1-c1cc(C(=O)N2CCC3(CC2)OCCO3)nc2cc(-c3ccc(Cl)cc3)nn12	12	24
Cc1cc(C)cc(NC(=O)c2cn(C)c3c(=O)n(Cc4ccccc4)c(=O)[nH]c23)c1	2	1
O=S(=O)(c1ccc(Cl)cc1F)N1CCCC1c1ccc2c(c1)OCCCO2 (stereo not drawn)	1	5
COCCCn1c(-c2cc(OC)c(OC)c(OC)c2)nc2nc3ccccc3nc21	-7	-15
O=C(Cc1ccccc1)N1CCC(c2ccccc2)=N1	-24	-28
Cc1ccccc1Nc1nc(-c2cc3cc(Br)cc(Br)c3oc2=O)cs1	-4	-7
CCCN(CCC)C(=O)c1cc(-c2ccc(OC)cc2)nc2cc(C(C)(C)C)nn12	8	12
CC(NC(=O)C1CCN(c2ccc(C(F)(F)F)cc2[N+](=O)[O-])CC1)c1ccccc1 (stereo not drawn)	2	-1
CCN(Cc1ccnc2ccccc12)CC1CCOCC1	8	6
Cc1ccc(C)c(-n2cc(CN3CCN(c4cnccn4)CC3)c(-c3ccccc3)n2)c1	9	12
Nc1ncn(Cc2ccc(Br)cc2)n1	10	3
CC(C)(C)c1ccccc1NC(=O)c1coc(N2CCNC2=O)n1	3	0
c1ccc(-c2noc(-c3cccc4ccccc34)n2)nc1	5	5
CSc1ccc(COc2coc(CN3CCCN(S(=O)(=O)c4ccc(OC(F)(F)F)cc4)CC3)cc2=O)cc1	23	14
CCCNC(=O)CCc1nc(-c2ccccc2)c(-c2ccccc2)o1	1	10
COc1ccc(C2CC(=O)C3C(=Nc4ccccc4NC3c3cccc(OCc4ccccc4)c3)C2)cc1 (stereo not drawn)	-4	-9
Cc1cccc(OCC(=O)Nc2nnc(-c3cccs3)s2)c1	-5	-6
CCOc1cccc2cc(-c3nnc(NC(=O)Cc4ccc(S(C)(=O)=O)cc4)o3)oc12	7	3
CCOc1ccc(C2C3=C(CC(C)(C)CC3=O)OC(=N)C2C#N)cc1 (stereo not drawn)	10	2
Cc1ccc(F)cc1Cn1ccnc1-c1ncc[nH]1	-1	-1
COc1ccc(OC)c(-n2c(-c3ccccc3)cc(C(=O)NC(C)C)c2C)c1	17	17
COc1cc(C)c(S(=O)(=O)NCCCCN2CCN(C)CC2)cc1C	6	2

Part of the list above, with each value named:
> COc1ccc(C2CC(=O)C3C(=Nc4ccccc4NC3c3cccc(OCc4ccccc4)c3)C2)cc1 (stereo not drawn)
- NPYLR7 agonist = -4
- NPYLR7 agonist max-min = -9

> CCN(CC(=O)NC1CCS(=O)(=O)C1)C(=O)c1ccc(Br)s1 (stereo not drawn)
- NPYLR7 agonist = -1
- NPYLR7 agonist max-min = 21

> CC(=O)OC12CC3C(=O)NC(CC(C)C)C(=O)N3C1N(C(C)=O)c1ccccc12 (stereo not drawn)
- NPYLR7 agonist = -5
- NPYLR7 agonist max-min = -15

> COCCCn1c(-c2cc(OC)c(OC)c(OC)c2)nc2nc3ccccc3nc21
- NPYLR7 agonist = -7
- NPYLR7 agonist max-min = -15

New compounds follow:
SMILES	NPYLR7 agonist	NPYLR7 agonist max-min
CC1=NCCN1S(=O)(=O)c1cc(C)c(Cl)cc1Cl	0	-1
CCCN(CC(=O)Nc1c(-c2ccccc2)c(C)nn1-c1ccc(C)cc1)C(=O)Nc1ccc([N+](=O)[O-])cc1	6	16
Cc1ccc(-n2nnnc2CNC(=O)Cc2ccc([N+](=O)[O-])cc2)cc1C	-2	-4
COC(=O)/C(C#N)=C/c1c(OC)[nH]c2ccccc12	-1	10
Cc1nnsc1CN(C)C(=O)c1cn2c3c(cccc3c1=O)CC2	10	0
CCOc1ccc(N2CC(c3nc4ccccc4n3C)CC2=O)cc1 (stereo not drawn)	1	5
Cc1nc(CNCc2cccc(C)c2C)n[nH]1	6	8
COc1ccccc1NC(=O)N(Cc1ccc(F)cc1F)CC1CC(c2cccc(F)c2)=NO1 (stereo not drawn)	-1	9
CCCCOc1ccccc1C1C(C(=O)OCCC)=C(C)NC2=C1C(=O)CCC2 (stereo not drawn)	-2	-8
CCOc1ccc(C(=O)Nc2c(N)nc(SCc3cccc4ccccc34)[nH]c2=O)cc1	-3	-2
CC1=C(C(=O)Nc2ccc(Cl)cc2)C(c2ccc(Cl)cc2)NC(=O)N1C (stereo not drawn)	3	5
O=C(c1cnsn1)N1CCC(CO)(Cc2cccc(F)c2)CC1	8	13

Compound profiles, from the list above. Values in the order: NPYLR7 agonist | NPYLR7 agonist max-min
Listed for CCCCOc1ccccc1C1C(C(=O)OCCC)=C(C)NC2=C1C(=O)CCC2 (stereo not drawn) : -2 | -8
Listed for COC(=O)/C(C#N)=C/c1c(OC)[nH]c2ccccc12 : -1 | 10

Following part:
SMILES	NPYLR7 agonist	NPYLR7 agonist max-min
COc1ccc(C=CC(=O)c2ccc(Br)cc2)cc1OC	-7	-12
CN(Cc1nc2ccc(F)cc2[nH]1)c1ccc(-c2nccn2C)nn1	16	10
Cc1ccsc1C(=O)N(C)C(C)c1ccc(S(N)(=O)=O)cc1 (stereo not drawn)	3	2
CC(C)(C(=O)N1CCC(C(N)=O)C1)c1ccc(Br)cc1 (stereo not drawn)	-1&5	-3&2
COCCNC(=O)C(NC(=O)c1ccc(F)cc1)C1CCN(C(=O)NC(C)(C)C)CC1 (stereo not drawn)	6	2
CCCCCCCC(=O)NCc1cccc(-c2ncc(-c3ccc(OC)cc3)[nH]2)c1	-1	-9
